# CD11b adhes enh: enhancers of CD11b/CD18 adhesion to fibrinogen, primary screen, K562 cells, luminescence; activation, % at 10 µM; hit rate 0.07% among 93,000; ATPlite luminescence; Integrin beta-2 (Homo sapiens) + Integrin alpha-M (Homo sapiens), P05107+P11215;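 active = 10 µM primary screen giving 50% or more activity, confirmed by 40% or more on retest at that dose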; note: strong numbers were not always called active; reference of the scale not given here
# ERb SRC1 inh: inhibitors of ERβ-SRC1 coactivator interaction, primary screen, biochemical, TR-FRET, ERβ LBD, SRC-1 peptide; TR-FRET ER-beta LBD / SRC1-Cy5 peptide binding; receptor agonist-loaded with 1 µM estradiol; inhibition, % at 25.6 µM; hit rate 1.3% among 86,000;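 active = compounds whose percent inhibition of the receptor-coactivator binding signal exceeds about 50% in the single-dose screen, limit read from the data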;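 note: 0% = receptor plus peptide wells without compound and 100% = peptide-only wells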
# Mac1 fbg inh: inhibitors of CD11b/CD18 adhesion to fibrinogen, primary screen, K562 cells, luminescence. Integrin beta-2 (Homo sapiens) + Integrin alpha-M (Homo sapiens), P05107+P11215. ATPlite luminescence; Mn2+ added to activate the integrin. inhibition, % at 10 µM. hit rate 0.54% among 93,000. AID 1497, 2009;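 active = primary inhibition of 50% or more at 10 µM, then 40% or more on retest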; note: some results filed as inactive read as strong as hits
# Smad3 inh: Smad3/FoxH1 peptide binding inhibitors, primary screen, biochemical, TR-FRET; TR-FRET Smad3/Dy647-FoxH1 peptide binding, europium anti-His; inhibition, % at 25 µM; hit rate 0.29% among 88,000;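 active = compounds that reduce the energy-transfer binding signal between the protein and its labelled peptide by more than half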;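 note: 0% = Smad3 plus labelled peptide maximal FRET and 100% = peptide-only background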
# Candida biofilm: clotrimazole potentiators killing Candida biofilms, primary screen, with clotrimazole, Alamar Blue; inhibition, % at 6 µM; AID 834, 2007; hit rate 0.14% among 85,000; C. albicans biofilm + clotrimazole;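 active = inhibition above 20%; inactive = inhibition below 20%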;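 note: preformed 24 hr biofilms exposed to compound for 48 hr; 0% = biofilm without compound and 100% = blank killed by clotrimazole plus chlorhexidine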
# ERa SRC1 pot: enhancers of ERα–SRC-1 coactivator binding, primary screen, biochemical, TR-FRET, ERα LBD, low estradiol; Estrogen receptor (Homo sapiens), P03372; TR-FRET ERalpha-LBD/SRC-Cy5 coactivator binding, 2 h; 100 = basal binding, no effect; coactivator binding (% of control), % at 25.6 µM; hit rate 1.3% among 86,000; in the data active = activity above about 200%;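 note: binding measured in presence of low estradiol as agonist stimulus; 0% = peptide alone without receptor and 100% = receptor with peptide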
# Target sequence (P03372 whole entry, looked up, the tested form may be a part): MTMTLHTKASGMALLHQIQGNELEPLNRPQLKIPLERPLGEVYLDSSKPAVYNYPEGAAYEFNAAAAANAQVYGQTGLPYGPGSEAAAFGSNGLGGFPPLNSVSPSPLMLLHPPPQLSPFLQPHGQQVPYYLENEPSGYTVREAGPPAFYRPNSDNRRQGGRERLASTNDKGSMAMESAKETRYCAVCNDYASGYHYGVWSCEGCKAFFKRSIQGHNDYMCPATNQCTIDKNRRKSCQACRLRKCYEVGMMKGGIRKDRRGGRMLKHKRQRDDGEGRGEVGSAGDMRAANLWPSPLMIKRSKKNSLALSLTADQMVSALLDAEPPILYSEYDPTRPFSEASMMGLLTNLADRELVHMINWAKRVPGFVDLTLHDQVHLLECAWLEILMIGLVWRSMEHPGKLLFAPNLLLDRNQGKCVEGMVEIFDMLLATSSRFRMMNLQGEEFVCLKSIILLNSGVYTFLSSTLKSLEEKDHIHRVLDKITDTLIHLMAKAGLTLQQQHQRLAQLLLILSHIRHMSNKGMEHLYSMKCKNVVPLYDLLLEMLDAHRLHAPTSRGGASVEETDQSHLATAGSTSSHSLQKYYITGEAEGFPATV
# MT1-MMP txn act: MT1-MMP promoter reporter activation – cell-based, luciferase luminescence, primary screen | hit rate 0.16% among 86,000 | AID 750, 2007 | HT1080 MT1-MMP promoter luciferase reporter, overnight; hits give high values | activation factor at 10 µM;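 active = activation factor of at least 2 for MT1-MMP transcription at 10 µM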
# Starred values were filed as active, the others as inactive; . = not tested or not shown; [ ] = remark or other dose. These rows are one share of the data; the hit share may differ from the screen's.
no.	SMILES	CD11b adhes enh	ERb SRC1 inh	Mac1 fbg inh	Smad3 inh
1	CN(C)C(CNc1nnnn1-c1ccccc1)c1ccco1 (centres undefined)	4.4	26.0[fluorescence artefact?]	10.1	9.0
2	CCOC(=O)Cc1csc(NC(=O)c2cccc(N3C(=O)CCC3=O)c2)n1	-4.4	-10.3	-12.3	16.7[fluorescence artefact?]
3	CCN(CC)S(=O)(=O)c1cccc(C(=O)Nc2ccc(Cl)cn2)c1	-3.3	2.0	6.5	0.7
4	CC(=O)Cc1nsc(NC(=O)c2ccc(COc3ccccc3)o2)n1	1.1	2.3	-14.7	14.4
5	CC1CCc2nc(NC(=O)CN3CCN(c4ccc(F)cc4)CC3)sc2C1 (centres undefined)	-2.3	-8.1	23.7	-8.4
6	CCOc1ccc(-c2nn(-c3ccccc3)cc2/C=C(\C#N)S(=O)(=O)c2ccccc2)cc1C	-1.2	.	-7.4	.
7	CCOC(=O)CNC(=O)C1CCCN(c2ncccn2)C1 (centres undefined)	-3.3	-13.3	-5.7	2.4
8	O=C(Nc1ccccc1C(=O)N1CCOCC1)c1cccc(S(=O)(=O)N2CCCC2)c1	10.5	0.0	-49.5	5.7
9	COc1ccc(C(=O)N2CCN=C2SCc2cccnc2)cc1OC	2.9	-8.6	-2.6	1.0
10	CCc1ccc(S(=O)(=O)Nc2ccc(-c3nc4cccnc4s3)cc2)s1	1.5	-2.5	-5.7	0.7
11	CCN(CC)C(=O)C1=C(C)Nc2nnnn2C1c1cccnc1 (centres undefined)	4.6	-22.2[fluorescence artefact?]	-16.9	8.4
12	COc1ccccc1N1CCN(CCOc2c(OC)cccc2OC)CC1	-1.5	13.9	0.2	-9.9
13	CCOC(=O)N1CCN(S(=O)(=O)Cc2ccccc2)CC1	.	2.9	.	9.5[fluorescence artefact?]
14	CS(=O)(=O)n1nc(-c2ccccc2)nc1N	-6.5	.	-4.7	.
15	Cc1sc2c(c1C)c(=O)n(-c1ccccc1)c1nncn21	-1.2	.	-7.4	.

no.	Candida biofilm	ERa SRC1 pot	MT1-MMP txn act
1	6.8	103.1	1.2
2	8.4	130.7	1.1
3	1.6	123.7	1.3
4	3.7	105.0	1
5	-4.1	104.5	1.2
6	.	.	.
7	.	133.0	1.1
8	4.2	114.4	1
9	-7.4	118.4	1
10	7.0	107.6[fluorescence artefact?]	.
11	5.4	105.6	1.1
12	4.4	96.6	0.9
13	8.4	108.4	1
14	.	.	.
15	.	.	.

no.	SMILES	CD11b adhes enh	ERb SRC1 inh	Mac1 fbg inh	Smad3 inh
16	CCN1C(=O)CSc2ccc(C(=O)NC3CCCCC3)cc21	-0.8	6.2	1.3	2.0
17	COc1ccc(C(=O)N2CCC(n3c(C)nc4cc(F)ccc43)CC2)cc1OC	-2.5	-5.4[fluorescence artefact?]	5.8	3.8[fluorescence artefact?]
18	O=S(=O)(Cc1ccccc1)Nc1ccc(S(=O)(=O)NCC2CCCO2)cc1 (centres undefined)	-1.5	1.4	7.7	3.6
19	O=c1cc(C23CC4CC(CC(C4)C2)C3)[nH][nH]1	8.1	-15.0	4.7	4.6
20	Cc1cccc(NC2SC(=O)N(CC(=O)O)C2=O)c1 (centres undefined)	.	-25.7[fluorescence artefact?]	.	-5.4
21	COc1ccc(CCN2C(=O)c3[nH]nc(-c4ccccc4O)c3C2c2cccc(Cl)c2)cc1 (centres undefined)	-2.5	-1.2	3.2	-4.7
22	CCOC(=O)c1sc(=S)n2c1[nH]c(=O)c1ccc(C(=O)OC)cc12	0.8	0.2[fluorescence artefact?]	13.6	-4.2
23	O=C1c2ccccc2C(=O)N1n1c(=O)[nH]c2ccccc2c1=O	-4.6	-24.1[fluorescence artefact?]	3.4	3.8
24	CCOc1ccc(C(=O)NC2CCN(C(=S)NCc3ccco3)CC2)cc1	-2.2	.	24.4	.
25	O=C(OCC(=O)N1CCCc2ccccc21)C1CCN(S(=O)(=O)c2cccs2)CC1	-2.7	-5.9	5.3	-2.3
26	Cc1csc(OCc2ccc(C#N)cc2)n1	0.7	-6.8	-5.6	15.8
27	CCOc1ccc(Cl)cc1/C=N/O	2.4	3.0	-15.7	-3.5
28	CSc1nc2c(c(=O)n1-c1ccccc1)SCC2	0.3	-12.4	-8.1	-9.6
29	COc1ccc(/C(O)=C2\C(=O)C(=O)N(c3cc(C)on3)C2c2ccc(OC)c(OC)c2)cc1OC (centres undefined)	.	6.5[fluorescence artefact?]	.	-0.4
30	CC(=O)Cc1nsc(NC(=O)c2ccco2)n1	-2.2	.	-25.3	.

no.	Candida biofilm	ERa SRC1 pot	MT1-MMP txn act
16	3.2	101.6	1
17	4.8	124.3[fluorescence artefact?]	1.3
18	11.4	69.0	1
19	1.7	93.0	1.1
20	3.8	115.1	1.3
21	7.8	65.3	1.1
22	4.2	83.7[fluorescence artefact?]	1.2
23	4.2	109.9	1
24	.	.	.
25	2.3	111.7	1.2
26	10.8	118.8	1.2
27	.	130.4	1.2
28	-3.8	98.6[fluorescence artefact?]	1.3
29	0.8	106.7	1.1
30	.	.	.

# Numbers 18–22 of the list above:
no.	SMILES	CD11b adhes enh	ERb SRC1 inh	Mac1 fbg inh	Smad3 inh
18	O=S(=O)(Cc1ccccc1)Nc1ccc(S(=O)(=O)NCC2CCCO2)cc1 (centres undefined)	-1.5	1.4	7.7	3.6
19	O=c1cc(C23CC4CC(CC(C4)C2)C3)[nH][nH]1	8.1	-15.0	4.7	4.6
20	Cc1cccc(NC2SC(=O)N(CC(=O)O)C2=O)c1 (centres undefined)	.	-25.7[fluorescence artefact?]	.	-5.4
21	COc1ccc(CCN2C(=O)c3[nH]nc(-c4ccccc4O)c3C2c2cccc(Cl)c2)cc1 (centres undefined)	-2.5	-1.2	3.2	-4.7
22	CCOC(=O)c1sc(=S)n2c1[nH]c(=O)c1ccc(C(=O)OC)cc12	0.8	0.2[fluorescence artefact?]	13.6	-4.2

no.	Candida biofilm	ERa SRC1 pot	MT1-MMP txn act
18	11.4	69.0	1
19	1.7	93.0	1.1
20	3.8	115.1	1.3
21	7.8	65.3	1.1
22	4.2	83.7[fluorescence artefact?]	1.2

# (continued)
no.	SMILES	CD11b adhes enh	ERb SRC1 inh	Mac1 fbg inh	Smad3 inh
31	FC(F)(F)c1cc(-c2ccccc2)nc(N2CCOCC2)n1	.	-9.5	.	2.6
32	COc1ccc(-n2c(=S)[nH]c3cc(C(=O)NCCCN4CCCC4=O)ccc3c2=O)cc1OC	1.9	-9.1	-1.2	-14.8
33	O=S(=O)(O)CCN1CCOCC1	-0.8	9.9	-1.2	-4.8
34	CC(C)=CC(=O)Nc1nnc(-c2cccnc2)s1	-6.2	9.8	-2.2	1.8

no.	Candida biofilm	ERa SRC1 pot	MT1-MMP txn act
31	9.2	88.9	1.2
32	3.7	80.9	1.2
33	0.6	116.3	1.1
34	6.8	135.6	1.2

# Screening data as filed in PubChem.
